SARS PLpro yeast – SARS-CoV PLP inhibition in yeast | 330,000 compounds, 0.19% hits | Potency, µM (series often up to 32.9 µM), inactives show top-dose activity, positive = growth rescue | S. cerevisiae expressing SARS-CoV PLpro, growth rescue; control for the full effect not named in the record; active means well fitted rising curve with a large enough effect; inconclusive means small, poorly fitted or top-dose-only effect; inactive means no such curve, though single readings can be large or run the other way; further: 0% is about no effect; nearly all actives have a fitted effect of over 55% in size; growth read by luminescence after 48 h
Cruzain inh Det – cruzain (T. cruzi) inhibition with detergent | P25779 | AID 1478 | 200,000 compounds, 0.43% hits | purified cruzain, Z-FR-AMC fluorescence, 0.01% Triton | Potency, µM, for the others: max response, negative = inhibition, actives largely listed as inhibitors;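 further: plate controls were neutral wells for no effect and buffer without enzyme for full effect; nearly all actives have a fitted effect of over 40% in size; top concentration of the series not given in the record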
Target sequence (P25779 123-467 limits assumed): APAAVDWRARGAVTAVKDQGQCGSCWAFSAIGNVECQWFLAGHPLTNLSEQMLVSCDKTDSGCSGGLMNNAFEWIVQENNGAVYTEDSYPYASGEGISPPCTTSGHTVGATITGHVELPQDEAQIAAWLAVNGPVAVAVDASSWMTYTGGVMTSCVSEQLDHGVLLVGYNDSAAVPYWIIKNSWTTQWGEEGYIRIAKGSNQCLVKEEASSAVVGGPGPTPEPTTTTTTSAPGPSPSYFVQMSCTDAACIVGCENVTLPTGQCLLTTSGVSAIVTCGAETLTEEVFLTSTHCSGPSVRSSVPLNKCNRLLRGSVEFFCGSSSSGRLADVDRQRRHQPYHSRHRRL
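Read-out: AMC fluorescence (360 nm excitation, 450 nm emission), four reads over 2 min, first-to-third difference used. Conditions: cruzain 1.5 nM, Z-FR-AMC 2 uM, pH 5.5 acetate, 5 mM DTT, 0.01% Triton X-100.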
NS1 function inh – inhibitors of influenza NS1 protein function; S. cerevisiae slowed by influenza A NS1, growth recovery by OD600; Potency, µM (series often up to 46.1 µM), without a hit: top-dose activity, positive = more growth; 270,000 compounds, 0.4% hits; active means well fitted rising curve with a large enough effect; inconclusive means small, poorly fitted or top-dose-only effect; inactive means no such curve, though single readings can be large or run the other way; further: nearly all actives have a fitted effect of over 50% in size
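Recovery from NS1-induced slow growth read by OD600 in budding yeast switched to galactose assay medium (pH 6.0, -URA) at 1:100 dilution. Compound 23 nl per well; the matching strain lacking NS1 serves as control.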
RE007 growth inh – less growth of the S. pombe RE007 Vpr strain; S. pombe RE007 Vpr strain, BacTiter-Glo ATP luminescence, 24 h; control for the full effect not named in the record; Potency, µM (highest dose often 92.2 µM), without a hit: at the highest dose activity change, negative = less growth; 360,000 compounds, 0.21% hits; active = well fitted falling curve with a large enough effect; inconclusive = small, poorly fitted or top-dose-only effect; inactive = no such curve, though single readings can be large or run the other way;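 further: on the % scale 0 is the no-effect control and ±100 the full control effect; nearly all actives have a fitted effect of over 50% in size; the assay follows cell death caused by Vpr and the record does not say whether a fall means rescue or toxicity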
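Fission yeast strain RE007, carrying one chromosomally integrated HIV-1 vpr copy, was seeded at OD 0.01 in PMG+AL medium with 23 nL pinned compound. After 24 h at 30 °C and 99% humidity, viability was read by BacTiter-Glo luminescence.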
Cruzain inh noDet – cruzain (T. cruzi) inhibition without detergent. 200,000 compounds, 2.3% hits. purified cruzain, Z-FR-AMC fluorescence, no detergent. Potency, µM, inactives show max response, negative = inhibition, usual class: inhibitors. P25779;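 further: plate controls were enzyme without inhibitor for no effect and buffer without enzyme for full effect; nearly all actives have a fitted effect of over 40% in size; top concentration of the series not given in the record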
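Purified cruzain at 1.5 nM, pre-incubated 15 min with compound at room temperature in 100 mM sodium acetate pH 5.5, 5 mM DTT, 0.00005% Triton X-100. Reaction started with 2 uM Z-FR-AMC; AMC fluorescence increase over 60 s gives rate.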
LASV entry inh – inhibitors of Lassa virus binding or cell entry; AID 540256; Potency, µM (top dose mostly 37.9 µM), without a hit: top-dose activity change, negative = inhibition, actives largely listed as inhibitors; Lassa virus pseudotype entry inhibition, cell reporter; control for the full effect not named in the record; 300,000 compounds, 1.2% hits; active means well fitted inhibition curve with a large enough effect; inconclusive means small, poorly fitted or top-dose-only effect, or effect the other way; inactive means flat fitted curve, though single readings scatter; tested in HEK293 cells; further: on the % scale 0 is the no-effect control and ±100 the full control effect; nearly all actives have a fitted effect of over 50% in size; luciferase read-out
2A StopGo – FMDV 2A StopGo reporter, luciferase signal; human cells with a luciferase reporter of 2A StopGo recoding; control for the full effect not named in the record; Potency, µM (titrated, usually from 57.9 µM), inactives show at the highest dose signal change, negative = less light; 410,000 compounds, 1.2% hits; active = well fitted falling curve with a large enough effect; inconclusive = small, poorly fitted or top-dose-only effect; inactive = no such curve, though single readings can be large or run the other way; tested in HEK293T cells; further: on the % scale 0 is the no-effect control and ±100 the full control effect; nearly all actives have a fitted effect of over 45% in size; luciferase light after 4 h
MARV entry inh – blocks Marburg virus binding to or entry into cells | Marburg virus pseudotyped entry inhibition, cell reporter; control for the full effect not named in the record; about a third of the inactives were read at about 46 µM | Potency, µM (highest dose often 37.8 µM), without a hit: top-dose activity change, negative = inhibition, actives largely listed as inhibitors | 300,000 compounds, 1.8% hits | AID 540276; active = well fitted inhibition curve with a large enough effect; inconclusive = small, poorly fitted or top-dose-only effect, or effect the other way; inactive = flat fitted curve, though single readings scatter; tested in HEK293 cells; about a fifth of its hits are not listed in these tables; further: on the % scale 0 is the no-effect control and ±100 the full control effect; luciferase read-out
Active calls of the source: *; ? = inconclusive; · = not tested or not shown; & = joins results of further samples; [ ] = dose if it differs, or a comment. Unless noted, the call rests on the fitted dose curve; in most records, active means well fitted curve in the direction sought with a large enough effect; inconclusive means small, poorly fitted or top-dose-only effect, or another doubt; inactive means no such curve, though single readings can be large; an effect the other way counts as inactive or inconclusive. Potency means the concentration at half of the fitted maximal effect.

structure | MARV entry inh | 2A StopGo | Cruzain inh Det | RE007 growth inh | SARS PLpro yeast | NS1 function inh | Cruzain inh noDet | LASV entry inh
CC1CN(C(=O)c2ccccc2)OC(c2ccc3c(c2)OCO3)O1 (configuration not stated) | 1%&1% | · | -0.3% | ? | 3% | -10% | -7% | 6%
CC1CC(C)CN(CCCNC(=O)C2CCCN(S(=O)(=O)N3CC(C)CC(C)C3)C2)C1 (configuration not stated) | · | -4% | · | -9% | 0% | -63% | · | ·
CCCCNC(=S)NNC(=O)c1ccc2c(c1)OCO2 | 8% | 35%[activator] | -0.8% | 22% | 19% | -2% | -5% | -1%
O=C(O)c1cc(NC(=O)c2cccc(N3C(=O)c4ccccc4C3=O)c2)cc(C(=O)O)c1 | 4% | ? | · | 9% | -1% | 19% | · | 21%
Cc1cc(=O)[nH]c(N2CCc3ccccc3C2)n1 | 18% | 20% | 4.2% | 3% | -2% | 3% | 4% | 2%
CN(C)c1ccc(/C=N/NC(=O)CNC(=O)/C=C/c2ccco2)cc1 | -16%[46.1 µM] | 25% | · | 6% | -2% | -9% | · | -12%
Cc1ccnc(NS(=O)(=O)c2ccc(NC(=O)CN3C(=O)CCC3=O)cc2)n1 | 29% | -23% | · | 19% | -1% | · | · | 4%
CC(C)Cn1cnc2c1c(=O)n(CC(=O)NC(=O)NC(C)(C)C)c(=O)n2Cc1ccccc1 | 0%[46.1 µM] | -12% | · | 1% | 2% | 10% | · | -14%
Nc1c(Cl)cc(N=Nc2ccccc2)cc1Cl | ? | 32%[activator] | · | 5% | · | · | · | 0%[46.1 µM]
Cc1nc(N2CCCC2)ncc1C(=O)NCc1ccccc1Cl | · | 1% | -1.8% | · | · | · | -4% | -3%[46.1 µM]
Clc1cccc(N2CCN(Cc3nnc(-c4ccccc4)o3)CC2)c1 | · | -20% | · | 3% | -2% | -3% | · | ·
CN(C)CCCNc1nc(N)c([N+](=O)[O-])c(NC2CCCCC2)n1 | · | -22% | · | 1% | 0% | 0% | · | ·
Cc1ccc(-c2nnc(CSc3nncn3N)o2)cc1 | ? | 10% | 5.1% | -5% | -7% | 3% | -3% | 4%
Cc1nc(Cl)sc1C(=O)Nc1cccc(Cl)c1 | · | 1% | · | -13% | -9% | -19% | · | ·
COc1ccc(OC)c(Cc2nnc(CCC(=O)NCc3ccsc3)o2)c1 | 28%[46.1 µM] | 13% | · | -14% | 2% | 4% | · | 19%[46.1 µM]
COc1ccc(-c2nn(-c3ccc(C)cc3)c3c2cnc2ccc(C)cc23)cc1OC | -11%[46.1 µM] | -7% | -1.5% | · | · | · | -12% | -13%[46.1 µM]
O=C(CSc1nnc(CNC(=O)c2ccco2)o1)Nc1cccc(C(F)(F)F)c1 | · | -6% | · | 2% | -4% | -10% | · | ·
CN(C(=O)c1ccc2c(c1)N(Cc1ccccc1F)C(=O)c1ccccc1S2)C1CCCCC1 | · | -17% | -4.7% | · | · | · | ? | -6%[46.1 µM]
Cc1ccc(-n2c(=O)c3ccc(C(=O)NCc4ccccc4Cl)cc3n(CC(N)=O)c2=O)cc1 | -3%[46.1 µM] | -7% | -0.8% | · | · | · | -1% | -19%[46.1 µM]
CN(CC(=O)Nc1ccc(N2CCOCC2)cc1)Cc1cc(=O)n2ccsc2n1 | 4%[46.1 µM] | -7% | · | 5% | -2% | · | · | ?

Five neighbouring records already listed:
structure | MARV entry inh | 2A StopGo | Cruzain inh Det | RE007 growth inh | SARS PLpro yeast | NS1 function inh | Cruzain inh noDet | LASV entry inh
Cc1ccc(-c2nnc(CSc3nncn3N)o2)cc1 | ? | 10% | 5.1% | -5% | -7% | 3% | -3% | 4%
Cc1nc(Cl)sc1C(=O)Nc1cccc(Cl)c1 | · | 1% | · | -13% | -9% | -19% | · | ·
COc1ccc(OC)c(Cc2nnc(CCC(=O)NCc3ccsc3)o2)c1 | 28%[46.1 µM] | 13% | · | -14% | 2% | 4% | · | 19%[46.1 µM]
COc1ccc(-c2nn(-c3ccc(C)cc3)c3c2cnc2ccc(C)cc23)cc1OC | -11%[46.1 µM] | -7% | -1.5% | · | · | · | -12% | -13%[46.1 µM]
O=C(CSc1nnc(CNC(=O)c2ccco2)o1)Nc1cccc(C(F)(F)F)c1 | · | -6% | · | 2% | -4% | -10% | · | ·

(list continues)
structure | MARV entry inh | 2A StopGo | Cruzain inh Det | RE007 growth inh | SARS PLpro yeast | NS1 function inh | Cruzain inh noDet | LASV entry inh
O=C(CN(Cc1ccc(Cl)cc1)C(=O)CN1C(=O)COc2ccccc21)NC1CCCC1 | -28%[46.1 µM] | -10% | · | 8% | 0% | 5% | · | -5%
CCC(=NCc1ccco1)c1c(O)n(C2CCCCC2)c(=O)[nH]c1=O | -2% | ? | -7.5% | 24% | -10% | -2% | -2% | 3.7µM*
Cc1cccc(N2CCN(C(=O)c3ccc(CNc4c(N5CCC(C)CC5)c(=O)c4=O)cc3)CC2)c1C | -8%[46.1 µM] | ? | · | 2% | 2% | · | · | -26%
CCOc1ccccc1N/C=C/C(=O)C(C)(C)C | 17% | 2% | -0.7% | -8% | · | -11% | 0% | 9%
COc1cccc(C(=O)NCc2ccco2)c1 | · | 13% | · | -4% | 1% | 7% | · | ·
COc1ccc(C(CNC(=O)c2cccc(NS(=O)(=O)c3ccc(C)c(F)c3)c2)N2CCCC2)cc1 (configuration not stated) | ? | -2% | · | -7% | 3% | · | · | ?
COc1ccc2nc(NC(=O)c3ccc(NS(=O)(=O)c4cccs4)cc3)sc2c1 | ? | -28% | -11% | 6% | 19% | 13% | ? | 0%
CC1CCc2nn(CC(=O)NCc3ccc(F)cc3)cc2C1 (configuration not stated) | · | -12% | 2.7% | 8% | 3% | 10% | 2% | ·
CCOc1ccc(CC(=O)Nc2c(C(=O)Nc3ccc(OC)cc3OC)oc3ccccc23)cc1 | 13%[46.1 µM] | ? | -0.7% | · | · | · | 3% | 13%[46.1 µM]
N#Cc1c(-n2ncnc2-c2cccc(Br)c2)sc2c1CCCCC2 | · | ? | 0.2% | · | · | · | 3% | 2%[46.1 µM]
CC(C)(C)C(=O)Nc1ccc(-c2nnc3n2CCCCC3)cc1 | · | -4% | · | 1% | -4% | 0% | · | ·
O=[N+]([O-])c1ccc(NN=Cc2ccc(O)cc2O)nc1 | ? | 13% | · | 4% | · | · | · | ?
NC(=O)c1ccsc1NC(=O)COC(=O)Cc1c[nH]c2ccccc12 | -13% | 20µM* | · | 2% | 4% | · | · | ?
C/C(=N\Nc1nccnc1Cl)c1ccc([N+](=O)[O-])cc1 | 16% | 10% | 1.8% | 19% | 4% | -1% | -11% | 0%
CC(=O)NCCn1c(SCc2cc(F)ccc2F)nc2ccccc2c1=O | -1% | -22% | -2.2% | -3% | -4% | 21% | ? | 24%
CCCOC(=O)Nc1ccccc1C(N)=O | 18% | -21% | 0.1% | 4% | 8% | -14% | 2% | 1%
COc1ccccc1C(=O)N1CCN(C(=O)COc2cccc(C)c2)CC1 | 1% | 7% | 2.3% | 1% | 6% | -12% | -7% | 6%
Cn1c(NC2CCCCC2)cc(=O)n(C)c1=O | -11% | 3% | · | -9% | 8% | -8% | · | 14%
CC1(C)OC(c2ccccc2)=C/C(=C/C=C2C(=O)c3ccccc3C2=O)O1 | 8%[46.1 µM] | 0% | · | 8% | 0% | · | · | 11%[46.1 µM]
COc1ccc(/C=N/NC(=S)Nc2cccc(C(=O)O)c2)cc1OC | ? | 16µM* | -9.7% | 6% | 1% | 13% | 2% | ?
COc1ccc(Nc2cc(C(=O)NCc3ccccc3)c3ccccc3n2)cc1OC | 2%[46.1 µM] | 37%[activator] | -2.2% | · | · | · | -7% | 6%[46.1 µM]
O=C1COc2ccc3ccccc3c21 | ? | 4% | · | -11% | 8% | 1% | · | -9%
COc1ccc(-n2nnc(C(=O)Nc3ccccc3F)c2N)cc1 | ? | 27% | 0.2% | · | · | · | -1% | -4%[46.1 µM]
CCNC(=O)NC(=O)COC(=O)c1ccccc1SCC(=O)NC(=O)NCC | 14µM* | -73% | -4.8% | ? | 2% | -63% | -13% | ?
O=C(Nc1ccccc1Cl)c1ccc2c(c1)N(Cc1ccc(F)cc1)C(=O)CS2=O (configuration not stated) | -2%&-2% | -26% | 0.8% | 0% | -4% | -3% | 2% | 0%
O=C(CN1C(=O)NC2(CCCc3ccccc32)C1=O)c1ccc(Br)cc1 (configuration not stated) | -13% | -18% | · | 12% | 4% | · | · | -1%
N=c1c(C(=O)NC2CCCC2)cc2c(=O)n3ccccc3nc2n1C1CCCC1 | -30% | 4% | -10% | 1%[3.69 µM] | -9% | -5% | -11% | -5%
N#Cc1ccccc1S(=O)(=O)N1CCN(C(=O)C2COc3ccccc3O2)CC1 (configuration not stated) | ? | -24% | · | 20% | -2% | · | · | 5%
COc1cc(/C=N/N2CCN(Cc3ccccc3)CC2)cc(OC)c1OC(C)=O | 12%[46.1 µM] | -11% | · | -9% | 1% | 4% | · | 3%[46.1 µM]
CN(C)CCn1c(=O)n(Cc2ccccc2)c(=O)c2c3c(sc21)CCCCC3 | ? | -25% | · | 5% | 2% | 2% | · | ?
Cc1nnc(C)n1/N=C/C=C/c1ccccc1 | 6% | 0% | 2.1% | -23% | 12% | 5% | -2% | -10%
CC(C)N(C(=O)CC1ON(C)C(=O)N1c1ccc(Cl)cc1)C(C)C (configuration not stated) | ? | -19% | · | 6% | -9% | · | · | 0%[46.1 µM]
